High-throughput results as filed in PubChem.
Marburg entry inh – inhibitors of Marburg virus binding or cell entry; Marburg virus pseudotyped entry inhibition, cell reporter; control for the full effect not named in the record; about a third of the inactives were read at about 46 µM; Potency, µM (titrated, usually from 37.8 µM), without a hit: at the highest dose activity change, negative = inhibition, most hits filed as inhibitors; actives 1.8% (n = 300,000); active = well fitted inhibition curve with a large enough effect; inconclusive = small, poorly fitted or top-dose-only effect, or effect the other way; inactive = flat fitted curve, though single readings scatter; tested in HEK293 cells; about a fifth of its hits are not listed in these tables; also: % is scaled to controls: 0 for no effect and ±100 for the full control effect; luciferase read-out
SARS PLpro yeast – SARS-CoV PLP inhibition in yeast; S. cerevisiae expressing SARS-CoV PLpro, growth rescue; control for the full effect not named in the record; Potency, µM (series often up to 32.9 µM), for inactives: top-dose activity, positive = growth rescue; actives 0.19% (n = 330,000); also: 0% is about no effect; nearly all actives have a fitted effect of over 55% in size; growth read by luminescence after 48 h
Cruzain inh noDet – blocks cruzain activity in detergent-free assay | purified cruzain, Z-FR-AMC fluorescence, no detergent | Potency, µM, without a hit: max response, negative = inhibition, usual class: inhibitors | P25779 | actives 2.3% (n = 200,000); active = well fitted curve in the direction sought with a large enough effect; inconclusive = small, poorly fitted or top-dose-only effect, or another doubt; inactive = no such curve, though single readings can be large; an effect the other way counts as inactive or inconclusive;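 also: plate controls were enzyme without inhibitor for no effect and buffer without enzyme for full effect; nearly all actives have a fitted effect of over 40% in size; top concentration of the series not given in the record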
Target sequence (P25779 123-467 limits assumed): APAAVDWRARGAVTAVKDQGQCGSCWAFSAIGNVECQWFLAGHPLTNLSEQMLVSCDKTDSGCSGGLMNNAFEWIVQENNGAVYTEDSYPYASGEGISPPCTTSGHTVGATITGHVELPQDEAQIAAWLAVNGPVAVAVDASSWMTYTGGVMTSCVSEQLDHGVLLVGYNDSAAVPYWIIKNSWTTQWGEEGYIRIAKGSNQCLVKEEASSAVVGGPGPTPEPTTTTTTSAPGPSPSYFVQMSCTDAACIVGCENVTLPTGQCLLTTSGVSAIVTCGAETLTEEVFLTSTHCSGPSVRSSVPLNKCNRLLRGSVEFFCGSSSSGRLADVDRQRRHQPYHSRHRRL
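Detergent-free condition (0.00005% Triton X-100) in acetate buffer pH 5.5 with DTT. 1.5 nM enzyme and compound were pre-mixed 15 min, then 2 uM Z-FR-AMC substrate added; reaction progress from fluorescence change between first and third reads (60 s).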
2A StopGo – FMDV 2A StopGo reporter, luciferase signal. human cells with a luciferase reporter of 2A StopGo recoding; control for the full effect not named in the record. actives 1.2% (n = 410,000). Potency, µM (titrated, usually from 57.9 µM), for inactives: at the top dose signal change, negative = less light. AID 1159524; active = well fitted falling curve with a large enough effect; inconclusive = small, poorly fitted or top-dose-only effect; inactive = no such curve, though single readings can be large or run the other way; tested in HEK293T cells; also: % is scaled to controls: 0 for no effect and ±100 for the full control effect; nearly all actives have a fitted effect of over 45% in size; luciferase light after 4 h
Cruzain inh Det – cruzain (T. cruzi) inhibition with detergent; Potency, µM, inactives show max response, negative = inhibition, most hits filed as inhibitors; actives 0.43% (n = 200,000); P25779; purified cruzain, Z-FR-AMC fluorescence, 0.01% Triton; active = well fitted curve in the direction sought with a large enough effect; inconclusive = small, poorly fitted or top-dose-only effect, or another doubt; inactive = no such curve, though single readings can be large; an effect the other way counts as inactive or inconclusive;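 also: plate controls were neutral wells for no effect and buffer without enzyme for full effect; nearly all actives have a fitted effect of over 40% in size; top concentration of the series not given in the record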
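Steps: dispense cruzain (1.5 nM final) in acetate buffer pH 5.5 with DTT and 0.01% Triton X-100; pin-transfer compounds; incubate 15 min RT; add Z-FR-AMC (2 uM final); read fluorescence every 30 s, using the 60 s intensity change.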
RE007 growth inh – less growth of the S. pombe RE007 Vpr strain; S. pombe RE007 Vpr strain, BacTiter-Glo ATP luminescence, 24 h; control for the full effect not named in the record; Potency, µM (titrated, usually from 92.2 µM), inactives show at the top dose activity change, negative = less growth; actives 0.21% (n = 360,000); AID 651644; active = well fitted falling curve with a large enough effect; inconclusive = small, poorly fitted or top-dose-only effect; inactive = no such curve, though single readings can be large or run the other way;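 also: % is scaled to controls: 0 for no effect and ±100 for the full control effect; nearly all actives have a fitted effect of over 50% in size; the assay follows cell death caused by Vpr and the record does not say whether a fall means rescue or toxicity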
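Fission yeast RE007 carrying one integrated HIV-1 vpr copy, seeded at OD 0.01 in PMG+AL medium with 23 nL pinned compound. Grown 24 h at 30 degrees; viability read by BacTiter-Glo luminescence after 5 min.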
LASV entry inh – blocks Lassa virus binding to or entry into cells. Lassa virus pseudotype entry inhibition, cell reporter; control for the full effect not named in the record. Potency, µM (doses to about 37.9 µM), without a hit: at the highest dose activity change, negative = inhibition, usual class: inhibitors. actives 1.2% (n = 300,000). AID 540256; active means well fitted inhibition curve with a large enough effect; inconclusive means small, poorly fitted or top-dose-only effect, or effect the other way; inactive means flat fitted curve, though single readings scatter; tested in HEK293 cells; also: % is scaled to controls: 0 for no effect and ±100 for the full control effect; nearly all actives have a fitted effect of over 50% in size; luciferase read-out
NS1 function inh – blocks influenza NS1 protein function. S. cerevisiae slowed by influenza A NS1, growth recovery by OD600. Potency, µM (series often up to 46.1 µM), for inactives: top-dose activity, positive = more growth. actives 0.4% (n = 270,000); also: actives are rising curves; nearly all actives have a fitted effect of over 50% in size
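Growth recovery, yeast-based: influenza A NS1 expressed in S. cerevisiae causes slow growth, and suppressors are detected by OD600. The parent strain without NS1 is used as positive control.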
The depositor's hits bear a star; ? = inconclusive; / = no result given; & = joins results of further samples; [ ] = another dose, or the depositor's remark. Unless noted, calls follow the shape of the dose curve; as a rule, active means well fitted rising curve with a large enough effect; inconclusive means small, poorly fitted or top-dose-only effect; inactive means no such curve, though single readings can be large or run the other way. Potency is read from the fitted curve at half-maximal effect. Rows are unselected. About 4.5% of those tested had a hit in this group.

structure,Cruzain inh noDet,2A StopGo,LASV entry inh,SARS PLpro yeast,Cruzain inh Det,RE007 growth inh,Marburg entry inh,NS1 function inh
O=C1CC[C@H](OCc2ccccc2)CCN1[C@H](CSc1ccccc1)Cc1ccccc1,/,37%[activator],/,1%,/,-8%,/,-36%
Cc1ccc(S(=O)(=O)NC(CC(C)C)C(=O)NCc2ccco2)cc1 (configuration not stated),-4%,1%,0%,3%,-6.4%,2%,9%,0%
C=CCn1c(=O)c(C(=O)NCc2ccc3c(c2)OCO3)c(O)c2cc(OC)c(OC)cc21,/,7%,-18%,-4%,/,-15%,9%,6%
C/C(=N\NC(=O)c1cc2c(s1)CCC(C)C2)c1cccnc1 (configuration not stated),10%,27%,-5%[46.1 µM],-32%,-10%,-26%,28%[46.1 µM],-9%
CN(C(=O)c1ccccc1-c1ncc[nH]1)C1CCCN(Cc2ccccc2F)C1 (configuration not stated),/,-4%,/,16µM*,/,6%,/,2%
COc1ccc(S(=O)(=O)N2CCN(C(=O)c3ccc(=O)[nH]n3)CC2)cc1OC,/,-9%,2%,3%,/,2%,3%,/
CCn1cc2nc(SCc3cccc(C(F)(F)F)c3)n(Cc3ccc(Cl)cc3)c(=O)c2n1,-2%,?,-2%[46.1 µM],/,1.8%,/,/,/
CC(=O)Oc1ccc(N2C(=O)C3C4C=CC(CO)(O4)C3C2=O)cc1 (configuration not stated),-1%,-21%,-6%,-31%,0.4%,7.9µM*,?,-202%
CCOc1ccc(C(C)=O)cc1COC(=O)C(C)N=C1NS(=O)(=O)c2ccccc21 (configuration not stated),/,29%,6%,-2%,/,1%,24%[46.1 µM],13%
COc1cccc(N=c2oc3ccc(OC)cc3cc2-c2nc3ccccc3[nH]2)c1,?,-30%,?,/,-3.1%,-14%,?,0%
CCOC(=O)c1cc(NC(=O)CSCCO)ccc1Cl,1%,2%,-11%,/,5.4%,-9%,3%,3%
CCCCN=C1CC(C)(C)CC(=O)/C1=C(/O)CCC,/,1%,?,-1%,/,-1%,18%,-3%
O=C(CCc1ccc(S(=O)(=O)N2CCOCC2)cc1)N1CCc2ccccc2C1,/,-12%,2%,-4%,/,-2%,8%,-1%
CC(=O)Nc1ccc(S(=O)(=O)NCC2(N3CCOCC3)CCCCC2)cc1,/,14%,15%,4%,/,1%,3%,/
CC(=O)Nc1ccc(-c2nnc(SCC(=O)c3ccc4c(c3)Cc3ccccc3-4)n2C)cc1,?,52%[activator],-14%,-11%,0.3%,-20%,?,-25%
Cc1cccnc1NC(=O)CCCNC(=O)c1ccc(Cl)cc1,/,-14%,-7%,-3%,/,8%,-4%,/
CCNC(=O)NC(=O)COC(=O)CNC(=O)COc1ccccc1,2%,0%,-1%,-2%,-1.8%,7%,16%,-3%
N=C1C(c2ccccc2)=C(O)CN1c1cccc(S(=O)(=O)NCc2ccco2)c1,/,5%,/,0%,/,-1%,/,5%
O=C(C1CC1)N(CCN(C(=O)C1CC1)c1ccccc1)c1ccccc1,-5%,0%,-1%,-3%,4.9%,16%,-3%[46.1 µM],3%
CC(C)COc1ccc(C(=O)Nc2sc3c(c2C(=O)O)CC(C)(C)OC3)cc1,/,-10%,?,0%,/,-1%,1.3µM*,2%
COCCCn1c(=N)c(C(=O)NC2CCCCC2)cc2c(=O)n3ccccc3nc21,?,-15%&-12%,10%[46.1 µM],16%,?,-15%,-9%[46.1 µM],8%
COc1cccc(/C=N/Nc2cc(Cl)nc(C)n2)c1O,/,24%,2%,-1%,/,1%,26%,3%
CC(=O)c1cc2c(cc1NC(=O)c1ccco1)OCCO2,/,4%,?,1%,/,7%,-6%[46.1 µM],-1%
COc1ccc(S(=O)(=O)N2CCOC2CNC(=O)C(=O)NCc2ccncc2)cc1OC (configuration not stated),/,-9%,19%,27%,/,-10%,16%,9%
O=C(c1ccc2c(c1)OCO2)N1CCN(c2ccccc2)CC1,-6%,-11%,-16%,9%,3.6%,0%,23%,?

structure,Cruzain inh noDet,2A StopGo,LASV entry inh,SARS PLpro yeast,Cruzain inh Det,RE007 growth inh,Marburg entry inh,NS1 function inh
Cc1[nH]c2ccccc2c1SCc1nnc(SCc2ccccc2)n1C,/,-25%,-24%,0%,/,18%,?,-1%
CCN(CC)C(=O)C1CCCN(Cc2ccccc2)C1 (configuration not stated),-1%,/,16%,-3%,4.0%,-7%,3%,0%
Cc1nc(-c2ccc(S(=O)(=O)Nc3ccc(S(N)(=O)=O)cc3)cc2)co1,/,2%,/,5%,/,3%,/,-5%
CCN1c2ccccc2-c2nc(SCC(=O)Nc3cc(F)ccc3F)ncc2S1(=O)=O,-1%,?,?,/,-10%,/,/,/
OCC(O)/C=N/Nc1nc(N2CCCCC2)nc(N2CCCCC2)n1 (configuration not stated),/,-15%,0%,-2%,/,5%,-2%,/
O=C(NCc1ccccc1Cl)C1CCN(S(=O)(=O)c2ccc(-n3cnnn3)cc2)CC1,/,-1%,/,-3%,/,0%,2%[46.1 µM],0%
CCCOc1ccc(N2C(=O)CC(N3CCN(c4ccccc4OC)CC3)C2=O)cc1 (configuration not stated),?,?,/,-37%,0.0%,?,3%,-33%
O=c1c2sccc2n(Cc2cc(=O)n3ccccc3n2)c(=O)n1-c1ccccc1,7%,-10%,7%,15%,-3.3%,2%,-13%,9%
Cc1ccc(NC(=O)c2c(-c3c(F)cccc3Cl)noc2C)cc1F,-6%,-20%,?,-6%,-7.4%,5%,-10%,-94%
COc1ccccc1N1C(=O)C2CCC(c3ccccc3)CC2C1=O (configuration not stated),-8%,22µM*,?,25%,-0.8%,2%,6%,-22%
Cc1ccc(SCC(=O)OC(C)C(=O)N2CCc3ccccc32)cc1 (configuration not stated),/,-15%,-1%,-15%,/,-7%,?,/
COc1ccc(Cl)cc1NC(=O)COc1ccc(S(=O)(=O)N2CCOCC2)cc1C,/,3%,/,0%,/,0%,8%[46.1 µM],4%
Cc1ccc2oc(=O)n(Cc3ccccc3OC(C)C)c2c1,-10%,0%,29%,-22%,-4.8%,1%,-12%,-28%
O=C(c1ccccc1Br)N1CCC(c2nc3ccccc3o2)CC1,8%,-24%,-8%[46.1 µM],/,-2.8%,/,-9%[46.1 µM],/
Clc1ccc(CNCCCSc2ncccn2)cc1Cl,/,19%,-4%[46.1 µM],-9%,/,2%,?,-1%
O=S(=O)(NCCNC/C=C/c1ccc(Br)cc1)c1cccc2cnccc12,-7%,?,?,/,-9.5%,/,10µM*,-11%
COc1ccc(NC(=O)CC2Sc3ncnn3C2=O)cc1 (configuration not stated),9%,-16%,1%,-94%,1.9%,?,-9%,-58%
O=C(c1ccc(N2CCCCC2)c([N+](=O)[O-])c1)N1CCN(S(=O)(=O)c2ccccc2)CC1,/,-19%,?,-5%,/,13%,-3%[46.1 µM],/
Cc1cc(C)cc(NS(=O)(=O)c2cccs2)c1,/,5%,-25%,-4%,/,14%,-20%[46.1 µM],-11%
COc1ccc(/C=C/C(=O)NCc2ccccn2)cc1OC,/,-17%,3%,-1%,/,-2%,4%,2%
CC(C)CNS(=O)(=O)c1ccc(OCC(=O)Nc2ccc3c(c2)OCO3)c(Cl)c1,-3%,44%[activator],18%,-2%,-2.0%,13%,?,11%
Cn1c(=O)c2c(nc(CN3CCN(Cc4ccccc4)CC3)n2Cc2ccc(Cl)cc2)n(C)c1=O,-2%,-9%,/,-3%,2.3%,1%,0%,-7%
CCN1CCN(CCCNC(=O)c2ccc(CS(=O)c3ccc(Br)cc3)o2)CC1 (configuration not stated),/,21%,/,1%,/,4%,/,5%
Cc1cccc(-c2nn(-c3ccccc3)cc2C(=O)N(C)CC(=O)Nc2ccc(N3CCOCC3)cc2)c1,/,17%,24%,-3%,/,15%,-5%,/
Cc1ccc(C)c(-n2c(C)cc(/C=N/NC(=O)c3c(C)nc4cc(C)ccn34)c2C)c1,-1%,-7%,12%,-5%,-9.9%,-5%,?,28%

structure,Cruzain inh noDet,2A StopGo,LASV entry inh,SARS PLpro yeast,Cruzain inh Det,RE007 growth inh,Marburg entry inh,NS1 function inh
COc1ccc(Cl)cc1NS(=O)(=O)c1ccc(S(=O)(=O)N2CCCC2)cc1,-12%,-27%,4%,0%,-6.3%,0%,-8%,?
CC1=CC(C)(C)N2C(=O)C(=O)c3cc(OC(=O)c4ccco4)cc1c32,/,6%,?,-5%,/,?,-27%[46.1 µM],-36%
Cc1csc(SCC(=O)Nc2ncc(Cl)c(C)c2Cl)n1,7%,18%,-2%,-5%,6.5%,-1%,2%[46.1 µM],-3%
COc1ccc(N2CCN(C(=O)C3CCN(c4nc5ccc(C)cc5[nH]4)CC3)CC2)cc1,-2%,?,-13%[46.1 µM],/,-3.9%,/,/,/
COc1ccccc1NC(=O)c1cc(C(=O)O)ccc1C(=O)O,-11%,1%,0%,6%,3.1%,-11%,0%[46.1 µM],4%
O=[N+]([O-])c1ccc(Cl)cc1CNc1ccc(F)c(F)c1,1%,-9%,-1%,-16%,-6.2%,17%,16%,-36%
Cc1snc2sc(C(=O)c3ccc(F)cc3)c(N)c12,/,23%,0%,1%,/,-6%,18%[46.1 µM],-5%
CCN(C(=O)COC(=O)c1cc(=O)[nH]c2ccccc12)C1CCS(=O)(=O)C1 (configuration not stated),/,-6%,/,2%,/,-5%,/,3%
Nc1ccc(C(=O)N2CCN(S(=O)(=O)c3ccc(Br)cc3)CC2)cc1[N+](=O)[O-],/,-14%,-3%,0%,/,10%,-1%,/
CCCCn1c(N)c(N(CC)C(=O)CSc2nnnn2-c2cc(C)ccc2C)c(=O)[nH]c1=O,/,-19%,/,-3%,/,-7%,/,-8%
O=C(O)CC(CC(=O)O)n1cccc1,-2%,-9%,5%,/,-0.5%,5%,6%,-9%
OCCOc1ccc(CN2CCN(CCCc3ccccc3)C(CCO)C2)cc1 (configuration not stated),/,-6%,/,4%,/,-14%,/,-10%
